# Compound activity as filed in PubChem.
# NOMO-1 viab = NOMO-1 AML cell viability reduction, primary screen, STK33 inhibitor project, CellTiter-Glo luminescence; AID 2330, 2010; actives 7.5% (n = 37,000); inhibition, % (test concentration not listed); NOMO-1 AML viability, 72 h;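 active = most replicates above 80%; inconclusive = exactly half above 80%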;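 note: wells of about 30 µL received 25 nL stock; 0% = median of vehicle wells and 100% = reference inhibitor level; the first replicate is given; inactives centre near 10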
# * marks the source's active call; other numbers are inactive results; ? = inconclusive.
SMILES,NOMO-1 viab
COc1ccc(NC(=O)Nc2ccc3c(c2)C(=O)N([C@@H](C)CO)C[C@H](C)[C@H](CN(C)Cc2ccc(Oc4ccccc4)cc2)O3)cc1,4.3
C[C@H](CO)N1C[C@H](C)[C@@H](CN(C)Cc2ccc(-c3ccccc3)cc2)Oc2c(NC(=O)c3cnccn3)cccc2C1=O,40.7
Cn1nnnc1SCC(=O)Nc1ccc2ccccc2c1,14.0
C[C@H](CO)N1C[C@H](C)[C@H](CN(C)C(=O)Nc2ccccc2)Oc2ccc(NC(=O)CCCCCC(=O)Nc3ccccc3N)cc2C1=O,0.4
CNC(=O)[C@H]1O[C@@H](n2cnc3c(NCc4cccc(I)c4)ncnc32)C(O)[C@H]1O (some centres not stated),9.7
C[C@@H]1CN([C@H](C)CO)C(=O)c2cc(NC(=O)CCN3CCOCC3)ccc2O[C@H]1CN(C)C(=O)Nc1ccc(C(F)(F)F)cc1,0.5
C[C@H]1CN([C@@H](C)CO)C(=O)c2cc(NC(=O)C3CC3)ccc2O[C@H]1CN(C)CC1CC1,24.3
C=CCSc1nnc(-c2ccc(C)cc2)o1,10.6
COc1ccc(S(=O)(=O)N(C)CC(=O)Nc2cccc(C(F)(F)F)c2)cc1,-5.2
CSc1sc(C(=O)Nc2cccc(Cl)c2)c(-c2cccs2)c1C#N,32.5

# Gathered by group: those above with a halogen
SMILES,NOMO-1 viab
CNC(=O)[C@H]1O[C@@H](n2cnc3c(NCc4cccc(I)c4)ncnc32)C(O)[C@H]1O (some centres not stated),9.7
C[C@@H]1CN([C@H](C)CO)C(=O)c2cc(NC(=O)CCN3CCOCC3)ccc2O[C@H]1CN(C)C(=O)Nc1ccc(C(F)(F)F)cc1,0.5
COc1ccc(S(=O)(=O)N(C)CC(=O)Nc2cccc(C(F)(F)F)c2)cc1,-5.2
CSc1sc(C(=O)Nc2cccc(Cl)c2)c(-c2cccs2)c1C#N,32.5

# Returning to the listing, repeating the 3 entries before the break.
SMILES,NOMO-1 viab
C=CCSc1nnc(-c2ccc(C)cc2)o1,10.6
COc1ccc(S(=O)(=O)N(C)CC(=O)Nc2cccc(C(F)(F)F)c2)cc1,-5.2
CSc1sc(C(=O)Nc2cccc(Cl)c2)c(-c2cccs2)c1C#N,32.5
C[C@@H]1CN([C@H](C)CO)C(=O)c2cccc(NC(=O)C3CC3)c2O[C@@H]1CN(C)S(=O)(=O)c1ccccc1,7.5
COc1ccc(NC(=O)N(C)C[C@H]2OCCCC[C@@H](C)Oc3ccc(NC(=O)Nc4ccc5c(c4)OCO5)cc3C(=O)N([C@H](C)CO)C[C@@H]2C)cc1,10.9
CNC(=O)C1OC(C)(C(C)(C)C)OC1C(=O)NC (configuration not stated),-27.4
COC(=O)c1ccccc1NC(=O)CNC(=O)c1ccco1,2.0
Cc1ccc(-c2nc(S(=O)(=O)c3ccc(F)cc3)c(NCc3ccco3)o2)cc1,29.1
Cc1ccc(S(=O)(=O)Nc2cccc3c2O[C@@H](CN(C)Cc2ccc(C(=O)Nc4ccccc4N)cc2)[C@H](C)CN([C@H](C)CO)C3=O)cc1,72.1
COc1ccc(NC(=O)N(C)C[C@@H]2Oc3ccc(NS(=O)(=O)c4ccccc4)cc3C(=O)N([C@H](C)CO)C[C@H]2C)cc1,4.4
Cc1ccc(S(=O)(=O)N(C)C[C@H]2Oc3ccc(NC(=O)Nc4cccc5ccccc45)cc3C(=O)N([C@H](C)CO)C[C@@H]2C)cc1,30.4
N/C(=N/C(=S)Nc1ccccc1)N1CCOCC1,7.8
C[C@H]1CN([C@@H](C)CO)C(=O)c2cc(NC(=O)NC3CCCCC3)ccc2O[C@H]1CN(C)Cc1ccc(C(=O)O)cc1,14.2
CCOC(=O)c1ccc(SC)cc1OC,3.3
C[C@@H]1CN([C@@H](C)CO)C(=O)c2cc(NS(C)(=O)=O)ccc2O[C@H]1CN(C)S(=O)(=O)c1cccs1,24.6
NC(=O)C1=CN(Cc2ccccc2)CCC1C(F)(F)F (configuration not stated),-2.2
O=c1c(O)cccc2cc(O)c(O)c(O)c12,31.2
C[C@H]1CN([C@@H](C)CO)C(=O)c2cc(NC(=O)NC3CCCCC3)ccc2O[C@H]1CN(C)Cc1ccc(Oc2ccccc2)cc1,3.0
C[C@@H]1CN([C@H](C)CO)C(=O)Cc2cc(NC(=O)CCC(F)(F)F)ccc2O[C@@H]1CN(C)Cc1ccncc1,0.9
C[C@H](CO)N1C[C@H](C)[C@H](CN(C)Cc2ccc3c(c2)OCO3)Oc2c(NC(=O)C3CCOCC3)cccc2C1=O,14.3
Cc1ccc(S(=O)(=O)N(C)C[C@@H]2Oc3ccc(NC(=O)Cc4cn(C)c5ccccc45)cc3CC(=O)N([C@@H](C)CO)C[C@@H]2C)cc1,20.7
C[C@H]1CN([C@@H](C)CO)C(=O)c2cccc(NC(=O)c3nc4ccccc4s3)c2O[C@H]1CN(C)S(=O)(=O)c1ccc(Cl)cc1,23.7
O=C(COc1ccc(F)cc1)N(c1ccccn1)C1CCCCC1,1.9
C[C@H]1CN([C@@H](C)CO)C(=O)c2cccc(NC(=O)C3CCOCC3)c2O[C@H]1CN(C)Cc1ccc(-c2ccccc2)cc1,19.5
Cc1ccc(S(=O)(=O)N(C)C[C@@H]2Oc3ccc(NS(=O)(=O)c4ccc(Cl)cc4)cc3C(=O)N([C@H](C)CO)C[C@@H]2C)cc1,37.2
C[C@@H]1CN([C@@H](C)CO)C(=O)c2cc(NC(=O)CCC(F)(F)F)ccc2O[C@@H]1CN(C)C(=O)Nc1ccc2c(c1)OCO2,-1.8
O=C(O)C1=CCCN(CCON=C(c2ccccc2)c2ccccc2)C1,-21.3
CCCC[C@@H](C)/C=C(C)/C=C(\C)C(=O)NC1=C[C@@](O)(/C=C/C=C/C=C/C(=O)NC2C(=O)CCC2=O)[C@@H]2O[C@@H]2C1=O,141.8*
COc1ccc(OC)c(NC(=O)Nc2cccc(Cn3cccn3)c2)c1,7.1
COc1ccc(NC(=O)CNC(=O)c2ccco2)cc1,34.1
CCn1c(SCC(=O)Nc2ccc(F)cc2F)nnc1-c1ccccc1OC,29.4
O=C(NCC1COc2ccccc2O1)Nc1csc2ccccc12 (configuration not stated),14.2
COc1cc2c(cc1OC)C(=O)CC(C)(C)O2,-0.4
COc1ccc(NC(=O)N(C)C[C@H]2Oc3ccc(NS(C)(=O)=O)cc3C(=O)N([C@@H](C)CO)C[C@H]2C)cc1,14.3
COC(=O)c1cc(NC(=O)CSc2nnc(N)s2)ccc1Cl,109.8*
C[C@H](CO)N1C[C@H](C)[C@@H](CN(C)Cc2ccc3c(c2)OCO3)Oc2c(NS(=O)(=O)c3ccc(Cl)cc3)cccc2C1=O,16.2
Cc1sc(NC(=O)CCn2cnc3ccccc3c2=O)c(C#N)c1C,-15.0
C[C@H](CO)N1C[C@H](C)[C@H](CN(C)C(=O)Nc2ccc(F)cc2)Oc2ccc(N(C)C)cc2CC1=O,7.4
COC1=CC(=O)OC(CCc2ccc(OC)c(OC)c2)C1 (configuration not stated),-13.6
COc1ccc(NC(=O)Nc2cccc3c2O[C@@H](CN(C)Cc2ccc(Cl)c(Cl)c2)[C@@H](C)CN([C@@H](C)CO)C3=O)cc1,120.7*
C[C@@H]1CN([C@@H](C)CO)C(=O)c2cc(N(C)C)ccc2O[C@@H]1CN(C)S(=O)(=O)c1ccc(Cl)cc1,14.7
COc1ccc([N+](=O)[O-])cc1NC(=O)CN(c1cc(C(F)(F)F)ccc1Cl)S(C)(=O)=O,19.7
COc1ccc(CN(C)C[C@H]2Oc3ccc(NS(=O)(=O)c4cn(C)cn4)cc3C(=O)N([C@H](C)CO)C[C@@H]2C)cc1,-1.8

# Quoted at random: 2 records from the list, in no set order.
SMILES,NOMO-1 viab
C[C@H](CO)N1C[C@H](C)[C@@H](CN(C)Cc2ccc3c(c2)OCO3)Oc2c(NS(=O)(=O)c3ccc(Cl)cc3)cccc2C1=O,16.2
COc1ccc(CN(C)C[C@H]2Oc3ccc(NS(=O)(=O)c4cn(C)cn4)cc3C(=O)N([C@H](C)CO)C[C@@H]2C)cc1,-1.8

# Additional entries follow:
SMILES,NOMO-1 viab
CSc1nsc(SCC(=O)N2CCc3ccccc32)n1,24.5
COc1ccc(NC(=O)Nc2ccc3c(c2)C(=O)N([C@H](C)CO)C[C@@H](C)[C@H](CN(C)S(=O)(=O)c2ccc(C)cc2)O3)cc1,-18.5
C[C@H](CO)N1C[C@H](C)[C@H](CN(C)CC2CCCCC2)Oc2c(NC(=O)Nc3ccccc3)cccc2C1=O,30.3
C[C@H]1CN([C@@H](C)CO)C(=O)c2cc(NC(=O)Nc3ccc(C(F)(F)F)cc3)ccc2O[C@H]1CN(C)Cc1ccc(Oc2ccccc2)cc1,83.0*
C[C@H](CO)N1C[C@H](C)[C@H](CN(C)Cc2ccccc2)Oc2ccc(NC(=O)Cc3cn(C)c4ccccc34)cc2C1=O,11.8
COc1ccccc1N1CCN(CCC(=O)Nc2ccc(Br)c(C)c2)CC1,33.3
C[C@@H]1CN([C@@H](C)CO)C(=O)c2cc(NC(=O)Nc3ccccc3)ccc2O[C@@H]1CN(C)S(=O)(=O)c1cn(C)cn1,28.3
COc1ccc(NC(=O)Nc2ccc(OC)c(OC)c2)cc1OC,31.9
C[C@H]1CN([C@@H](C)CO)C(=O)c2cccc(NC(=O)C3CC3)c2O[C@H]1CN(C)S(=O)(=O)c1cn(C)cn1,29.2
CCCN(C)C[C@H]1OCCCC[C@@H](C)Oc2ccc(NC(=O)c3ccncc3)cc2C(=O)N([C@H](C)CO)C[C@@H]1C,30.6
N#Cc1ccccc1OCCCn1cnc2ccccc21,12.6
O=[N+]([O-])c1ccccc1NCCNS(=O)(=O)c1ccc(Br)cc1,-17.1
O=C(CN1C(=O)c2cccc3cccc1c23)Nc1ccc(S(=O)(=O)N2CCOCC2)cc1,-6.7
Cc1ccn(CN2CCN(Cn3ccc(C)n3)C2=S)n1,5.8
Cc1nn(CC(=O)Nc2cc(Cl)cc(Cl)c2)c(C)c1[N+](=O)[O-],?
COc1ccc(S(=O)(=O)Nc2ccc3c(c2)CC(=O)N([C@H](C)CO)C[C@@H](C)[C@H](CN(C)S(=O)(=O)c2ccc(F)cc2)O3)cc1,22.8
Cc1ccnc(NS(=O)(=O)c2ccc(NC(=O)c3csc(C)c3)cc2)n1,21.6
C[C@@H]1CCCCO[C@@H](CN(C)C(=O)c2ccncc2)[C@@H](C)CN([C@H](C)CO)C(=O)c2cc(NS(=O)(=O)c3cccs3)ccc2O1,-3.9
C[C@@H]1CN([C@@H](C)CO)C(=O)c2cccc(NC(=O)Nc3ccc4c(c3)OCO4)c2O[C@@H]1CN(C)Cc1ccc(C(=O)Nc2ccccc2N)cc1,141.6*
Cc1noc(C)c1S(=O)(=O)Nc1ccc2c(c1)C(=O)N([C@H](C)CO)C[C@H](C)[C@@H](CN(C)CC1CCCCC1)OCCCC[C@@H](C)O2,28.1
CCOC(=O)C(Cc1ccc(O)cc1)NC(C)=O (configuration not stated),-2.4
CC(C)NC(=O)Nc1cccc2c1O[C@@H](CN(C)S(=O)(=O)c1ccc(F)cc1)[C@@H](C)CN([C@H](C)CO)C2=O,-7.1
COc1ccc(OC)c(NC(=O)CSc2nnc(-c3ccccc3)n2-c2ccccc2)c1,18.1
Cc1ccc(S(=O)(=O)N(C)C[C@H]2Oc3ccc(NC(=O)CCN4CCOCC4)cc3C(=O)N([C@H](C)CO)C[C@@H]2C)cc1,21.9
COc1cccc2cc(C(=O)C3C(=O)C(=O)N(CCCN(C)C)C3c3ccccc3F)oc12 (configuration not stated),1.9
C[C@@H]1CN([C@H](C)CO)C(=O)Cc2cc(NC(=O)c3ccncc3)ccc2O[C@@H]1CN(C)Cc1ccc(Oc2ccccc2)cc1,25.0
C[C@H](CO)N1C[C@H](C)[C@@H](CN(C)C(=O)Nc2ccc3c(c2)OCO3)Oc2c(NC(=O)C3CCOCC3)cccc2C1=O,-7.6
C[C@@H]1CCCCO[C@H](CN(C)Cc2ccc(C(F)(F)F)cc2)[C@@H](C)CN([C@H](C)CO)C(=O)c2cc(NC(=O)Cc3ccccc3)ccc2O1,46.9
O=C(O)C1CCCCC1C(=O)Nc1ccc([N+](=O)[O-])cc1 (configuration not stated),-2.9
C[C@H](CO)N1C[C@H](C)[C@H](CN(C)Cc2ccncc2)Oc2ccc(NC(=O)Cc3cn(C)c4ccccc34)cc2C1=O,69.5
O=C(COc1ccccc1[N+](=O)[O-])Nc1ccc(O)c(-c2nc3ccccc3s2)c1,78.9
C[C@@H]1CN([C@H](C)CO)C(=O)c2cccc(NC(=O)Nc3cccc4ccccc34)c2O[C@@H]1CN(C)Cc1ccccc1,47.5
Cc1ccc(NC(=O)CN(c2ccc(Br)c(C)c2)S(C)(=O)=O)cc1,51.0
CCOC(=O)c1c(NC(=O)c2ccc(N(C)S(C)(=O)=O)cc2)sc2c1CCCC2,30.1
CC(C(=O)Oc1cccc2cccnc12)N1C(=O)c2ccccc2C1=O (configuration not stated),127.3*
C[C@@H]1CN([C@@H](C)CO)C(=O)Cc2cc(NC(=O)CCN3CCOCC3)ccc2O[C@@H]1CN(C)Cc1ccc2c(c1)OCO2,-2.8
COc1cc(C)c(Cl)cc1S(=O)(=O)NCCCN1CCOCC1,-17.1
C[C@@H]1CCCCO[C@@H](CN(C)C(=O)c2ccccc2)[C@@H](C)CN([C@H](C)CO)C(=O)c2cc(NC(=O)Cc3ccccc3)ccc2O1,10.3
C[C@H]1CN([C@@H](C)CO)C(=O)Cc2cc(NS(=O)(=O)c3ccc(Cl)cc3)ccc2O[C@@H]1CN(C)C(=O)Nc1ccc(F)cc1,1.1
C[C@@H]1CN([C@@H](C)CO)C(=O)Cc2cc(NS(=O)(=O)c3ccc(Cl)cc3)ccc2O[C@@H]1CN(C)C(=O)Nc1ccc(C(F)(F)F)cc1,39.6
Cc1cc(Cl)c(S(=O)(=O)Nc2ccc3c(c2)OCCO3)cc1OCC(N)=O,20.2
CC1CCC2(C)C(CC(O)C(O)C23CO3)C1(C)CCC1=CC(=O)OC1O (configuration not stated),8.2
COC(=O)c1ccccc1NC(=O)CSc1nc2ccccc2c(=O)[nH]1,20.6

# This is a subset (hit frequency here may not be typical).
